GLA inh pH 4.5 – qHTS Assay for Inhibitors of Human alpha-Galactosidase at pH 4.5; purified enzyme, 4-MU-alpha-Gal fluorescence, pH 4.5; Alpha-galactosidase A (Homo sapiens), P06280; 230,000 tested, under 10 active; activity change, negative = inhibition, % at 105 µM; AID 1467, 2008; inconclusive = small, poorly fitted or top-dose-only inhibition, or a rising curve; inactive = flat fitted curve, though single readings scatter; no compound was filed as active;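 note: 0% = full activity with enzyme and -100% = basal without enzyme; dose as in the result columns while the protocol names 77 µM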
Rango dissoc inh – qHTS Assay for Inhibitors of RanGTP induced Rango (Ran-regulated importin-beta cargo) - Importin beta complex dissociation. Snurportin-1 (Homo sapiens) + GTP-binding nuclear protein Ran (Homo sapiens) + Importin …. AID 540253, 2011. Biochemical FRET Rango-importin beta, RanGTP-induced dissociation. 340,000 tested, 0.071% active. Potency, µM (series often up to 46.1 µM), for inactives: at the highest dose activity change, negative = inhibition; active means falling FRET ratio curve, often poorly fitted, with flat reads before Ran was added; inconclusive means other falling curves, or compound fluorescence or quenching; inactive means flat or rising ratio curve;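 note: potency is the fitted concentration of half-maximal effect; % of control where 0% means no effect; nearly all actives have a fitted effect of over 45% in size; -100% = wells without RanGTP and RCC1; the record marks most hits as doubtful in a second field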
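Rango (0.1 uM)–importin beta (0.25 uM) complex; RanGTP-RCC1 trigger; 45 min RT; CFP/YFP FRET read.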
Rango-impB inh – qHTS Assay for Inhibitors of Rango (Ran-regulated importin-beta cargo) - Importin beta complex formation. Rango CFP/YFP FRET sensor + importin beta, 45 min. Potency, µM (titrated, usually from 92.2 µM), inactives show at the top dose inhibition of complex formation. 340,000 tested, 0.031% active. AID 540263, 2011; active = rising FRET ratio curve, often small or poorly fitted; inconclusive = mostly compound fluorescence or quenching in the first reads; inactive = flat curves in all reads;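 note: potency is the fitted concentration of half-maximal effect; 0% = DMSO wells and 100% = buffer wells lacking importin beta; nearly all actives have a fitted effect of over 15% in size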
Target sequence (Q14974 whole entry, looked up): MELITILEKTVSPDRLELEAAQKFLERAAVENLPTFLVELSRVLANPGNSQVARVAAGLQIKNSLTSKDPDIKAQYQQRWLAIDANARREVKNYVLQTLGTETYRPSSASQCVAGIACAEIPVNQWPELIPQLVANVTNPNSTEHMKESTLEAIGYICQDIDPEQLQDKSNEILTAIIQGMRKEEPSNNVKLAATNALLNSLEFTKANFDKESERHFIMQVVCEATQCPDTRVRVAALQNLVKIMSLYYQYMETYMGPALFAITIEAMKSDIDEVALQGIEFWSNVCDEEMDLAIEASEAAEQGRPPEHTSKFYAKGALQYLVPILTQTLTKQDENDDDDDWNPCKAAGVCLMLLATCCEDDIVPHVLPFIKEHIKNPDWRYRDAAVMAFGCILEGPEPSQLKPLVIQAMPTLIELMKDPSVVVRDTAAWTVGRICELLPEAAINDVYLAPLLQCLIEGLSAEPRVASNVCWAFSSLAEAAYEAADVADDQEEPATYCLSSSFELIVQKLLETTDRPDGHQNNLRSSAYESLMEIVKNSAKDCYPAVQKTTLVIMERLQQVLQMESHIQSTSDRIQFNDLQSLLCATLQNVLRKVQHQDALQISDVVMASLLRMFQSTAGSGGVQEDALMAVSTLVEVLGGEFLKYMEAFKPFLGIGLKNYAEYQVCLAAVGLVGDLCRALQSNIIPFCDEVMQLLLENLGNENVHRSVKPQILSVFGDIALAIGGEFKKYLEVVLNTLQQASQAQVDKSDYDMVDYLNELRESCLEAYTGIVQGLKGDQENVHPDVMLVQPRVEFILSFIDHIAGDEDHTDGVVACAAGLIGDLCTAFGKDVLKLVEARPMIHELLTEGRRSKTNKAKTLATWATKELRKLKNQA
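FRET biosensor Rango (snurportin 1 IBB between N-terminal EYFP and C-terminal Cerulean), 50 nM in PBS/1 mM DTT/0.02% Tween-20/0.1% BSA, preincubated 5 min RT with compound; 0.125 microM importin beta added, 45 min RT, CFP/YFP FRET ratio read.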
miR-21 FLuc – qHTS Assay for Modulators of miRNAs and/orActivators of miR-21; Potency, µM (titrated, usually from 38.3 µM), for the others: at the highest dose reporter change, positive = more light; HeLa miR-21 FLuc reporter, luciferase, 48 h; AID 2288, 2010; 340,000 tested, under 10 active; active = well fitted rising curve with a large enough effect; inconclusive = small, poorly fitted or top-dose-only effect; inactive = no such curve, though single readings can be large or run the other way;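 note: % of control where 0% means no effect; miR-21 action dims this reporter so a rising signal means less miR-21 action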
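Compounds were titrated across several concentrations (up to approximately 40 uM) and incubated 48 hours with HeLa miR-21-FLuc reporter cells (miR-21 target sequence downstream of FLuc, endogenous miR-21). Readout was firefly luciferase luminescence after lytic detection reagent.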
* hit, by the source's call; u = inconclusive; x = no result given.

SMILES | GLA inh pH 4.5 | Rango dissoc inh | Rango-impB inh | miR-21 FLuc
O=C(NCCN1CCOCC1)c1ccc2ccccc2c1 | -3.2 | -9.6% | -0.4% | -24.5%
COc1ccccc1C(CNC(=O)c1cccc(S(=O)(=O)N2c3ccccc3CC2C)c1)N(C)C (stereo not given) | x | 19.7% | -0.3% | x
Cc1[nH]nc2c1C(c1ccsc1)C1=C(CC(C)(C)CC1=O)N2 (stereo not given) | 2.4 | -3.7% | 2.9% | -0.8%
OCCOCCn1c(C(CO)Nc2nc(-c3ccc(Cl)cc3)cs2)nc2ccccc21 (stereo not given) | x | -20.8% | 0.1% | x
COc1ccc(OC)c(-c2nnc3n2N=C(c2ccc(OC)c(OC)c2)CS3)c1 | x | -9.9% | -1.7% | x
COc1cccc(C(=O)Nc2ccccc2NC(=O)c2cccc(OC)c2)c1 | x | 4.2% | 5.6% | 2.8%
CN(CC(=O)NCC1CCCO1)S(=O)(=O)c1ccc(Br)cc1 (stereo not given) | x | -9.9% | -1.3% | 3.2%
O=C(NCCNC(=O)c1ccccn1)c1ccc(-c2ccccc2)cc1 | x | 19.2% | 0.2% | 4.2%
O=C1CCCc2cc3c(cc21)CCCC3 | x | 8.8% | -0.5% | x
CC(OC(=O)CN1C(=O)c2ccccc2C1=O)C(=O)N(C)c1ccccc1 (stereo not given) | x | 3.0% | 0.7% | x
CN(C)Cc1c(C(=O)N/N=C/c2ccc(OCc3ccc(F)cc3)cc2)nnn1-c1nonc1N | x | 1.0% | 3.7% | 0.5%
COc1ccc(S(=O)(=O)N2CCCCCC2)cc1 | 6.1 | -8.8% | -1.7% | -0.9%
COc1ccc(-c2cc(C(=O)c3c(N)n(C)c(=O)n(C)c3=O)c3ccccc3n2)cc1 | -13.6 | 21.1% | 1.2% | -32.4%
CCCCC(=O)NC(c1ccc(N(CC)CC)cc1)c1ccc2cccnc2c1O (stereo not given) | x | -3.7% | 0.9% | 23.8%
O=C(COC(=O)c1ccccc1OCc1ccccc1Cl)NC1CC1 | -3.3 | -14.3% | -1.4% | -7.8%
COc1ccc(OCc2n[nH]c(=S)n2Cc2ccco2)cc1 | 8.2 | 1.3% | -0.1% | -28.8%
Cc1nc(SCC(=O)c2ccccc2)[nH]c(=O)c1Oc1ccc(Cl)cc1 | -0.5 | 0.2% | -0.7% | -5.1%
COc1ccc(S(=O)(=O)NCCN2CCOCC2)c2ccccc12 | -24.8 | 13.4% | 1.1% | -8.9%
CC(=O)N1CCc2cc(C(=O)CN3CCN(c4cccc(Cl)c4)CC3)ccc21 | 1.3 | -13.0% | -1.9% | -9.0%
C/C(=N\Nc1cc(C)nc(-c2ccccc2)n1)c1cccc([N+](=O)[O-])c1 | 5.9 | 5.8% | 3.6% | -0.3%
Cc1ccccc1CS(=O)(=O)Cc1ccc(C(=O)N2CCOCC2)o1 | 2.8 | 2.9% | -0.2% | -7.2%
CN(C(=O)OC(C)(C)C)c1ccc(-c2nc3ccccc3s2)cc1 | x | 14.5% | 0.5% | x
CCCC(=O)Nc1ccc2c(c1)C(=O)N(CCC(=O)O)C2=O | -0.1 | -10.4% | -4.2% | -0.4%
N=C1/C(=C/c2ccc(OCc3ccccc3)cc2)C(=O)N=C2SC(CC(=O)N3CCOCC3)=NN12 | x | -14.0% | u | -31.2%
CSc1ccccc1OCc1cc(C(=O)NCCn2ccnc2C)no1 | x | -1.4% | 0.1% | -2.6%
O=C1NC(=Nc2ccc(Cl)cc2)SC1Cc1cccc(Cl)c1Cl (stereo not given) | -5.9 | -15.3% | -2.5% | -8.9%
CC1CCCCC1NC(=O)c1cn(C)c2ccc(S(=O)(=O)N3CCCC3)cc2c1=O (stereo not given) | 6.4 | -11.0% | -1.9% | 0.7%
CC(=O)C1=C(c2ccccc2)N(C(C)=O)n2c(C)nnc2S1 | 1.8 | 25.5% | -2.4% | 25.9%
OC(CNC1Cc2ccccc2C1)COc1ccc(Cl)cc1 (stereo not given) | -5.5 | -3.2% | 2.0% | -5.6%
O=C(O)[C@H](Cc1ccccc1)NC(=O)C(c1ccccc1)(c1ccccc1)c1ccccc1 | -5.6 | u | -4.5% | 20.9%
O=C(/C=C/c1ccc(S(=O)(=O)N2CCOCC2)cc1)N1CCN(c2ccccc2)CC1 | -1.6 | -9.8% | 2.2% | 5.1%
Cc1ccc(/C=C2/SC(=S)N(CC(=O)Nc3ncc(Cc4ccc(C)cc4)s3)C2=O)cc1 | 3.8 | u | -4.7% | -1.3%
COc1ccc(CNC(=O)CN(C(=O)CCC(=O)Nc2ccccn2)c2cc(C)ccc2C)cc1 | x | -0.2% | 2.2% | -3.6%
COc1ccc(C2CC(=O)C3=C(C2)Nc2ccccc2N(C(C)=O)C3c2ccco2)cc1 (stereo not given) | -8.5 | 5.6% | 3.0% | -5.4%
CC(=O)N1CCN(c2ccc(NCc3ccco3)cc2)CC1 | x | 11.2% | 0.9% | x
O=C(COC(=O)c1cccc(Br)c1)NCCc1ccc(F)cc1 | -2.7 | 5.8% | 0.0% | -6.8%
CCOC(=O)CSc1cc(CS(=O)(=O)c2ccccc2)nc(-c2ccccc2)n1 | 1.9 | -13.3% | -0.3% | -0.1%
COc1ccc(NC(=O)CSc2nc3ccccc3c(=O)n2CCCN2CCCCC2)c(OC)c1 | -8.4 | -11.8% | -0.1% | -15.1%
CSc1n[nH]c(-c2ccc(C(F)(F)F)cc2)n1 | -0.1 | -4.8% | -3.7% | -63.9%
CCOC(=O)N1CCN(Cc2nc(-c3cccc(C)c3)no2)CC1 | 1.6 | 5.0% | -1.0% | -12.0%

Some of these compounds in order of the Rango-impB inh value, descending:
SMILES | GLA inh pH 4.5 | Rango dissoc inh | Rango-impB inh | miR-21 FLuc
COc1ccc(C2CC(=O)C3=C(C2)Nc2ccccc2N(C(C)=O)C3c2ccco2)cc1 (stereo not given) | -8.5 | 5.6% | 3.0% | -5.4%
O=C(COC(=O)c1cccc(Br)c1)NCCc1ccc(F)cc1 | -2.7 | 5.8% | 0.0% | -6.8%
O=C(O)[C@H](Cc1ccccc1)NC(=O)C(c1ccccc1)(c1ccccc1)c1ccccc1 | -5.6 | u | -4.5% | 20.9%

Remaining list, next part:
SMILES | GLA inh pH 4.5 | Rango dissoc inh | Rango-impB inh | miR-21 FLuc
COC(=O)CNC(=O)COC(=O)Cc1ccc(Cl)cc1 | -2.0 | 3.4% | 2.5% | -0.1%
OCCN(CCO)CC(O)COCCC12CC3CC(CC(C3)C1)C2 (stereo not given) | -4.7 | -2.4% | 1.4% | -12.6%
COC(=O)/C(C#N)=C1/SC=C(C)N1c1ccccc1 | -5.3 | 16.8% | 1.0% | -8.1%
O=C(Nc1ccccc1C(F)(F)F)C1CCN(C(=O)Cc2ccccc2)CC1 | x | 6.6% | -4.5% | 0.9%
CCOc1ccccc1OCCCC(=O)NCCc1ccc(S(N)(=O)=O)cc1 | x | 11.6% | -1.5% | 0.1%
NNc1nc2c(-c3ccc(Cl)cc3)nnn2c2ccccc12 | -1.3 | u | u | -52.5%
CC(C)COC(=O)Cn1cnc2ccc(Br)cc2c1=O | 0.3 | -7.2% | -1.2% | -14.6%
O=C(O)COc1ccc(C(NC(=O)c2c(F)cccc2F)NC(=O)c2c(F)cccc2F)cc1 | x | -17.9% | 0.3% | 0.3%
CCCCNC(=S)NNC(=O)c1cc(C)on1 | -11.7 | -16.1% | u | -3.4%
CCOc1ccc(C(=O)NCC(=O)OCC(=O)N2CCCC2)cc1 | 1.7 | -11.7% | 4.1% | 1.0%
CC(=O)N1CCc2cc(Br)cc(S(=O)(=O)N3CCCCC3)c21 | x | 4.4% | -0.2% | 2.4%
C=C(C)c1cccc(C(C)(C)NC(=O)NCc2cccnc2)c1 | 2.0 | 10.4% | -1.3% | -4.7%
Cc1ccc(C2c3sc(=O)[nH]c3SC3C4CC(C5C(=O)N(C(C)C(=O)O)C(=O)C45)C23)cc1 (stereo not given) | 11.4 | 0.7% | 4.1% | -3.0%
COc1ccc(-c2nnc(NC(=O)C3CCCN3S(=O)(=O)c3cccs3)o2)cc1 (stereo not given) | x | 9.5% | -3.3% | x
OC1O[C@H](c2ccc3c(c2)OCO3)[C@H]2CO[C@H](c3ccc4c(c3)OCO4)[C@@H]12 (stereo not given in full) | 3.1 | 1.7% | -2.4% | 4.3%
Cc1ccc(C(=O)NC(=S)NNC(=O)c2ccccc2O)cc1 | x | 1.3% | -2.0% | -14.8%
Cc1c(C(=O)OCCOC(C)C)[nH]c2c1C(=O)CC(c1ccco1)C2 (stereo not given) | -15.2 | -3.2% | 2.7% | 16.5%
Nc1cc(=O)[nH]c(SCC(=O)NNC(=O)Cc2ccccc2)n1 | -0.6 | -7.0% | u | -6.7%
COc1ccc(C(=O)Nc2cccc3c2CCCC3)cc1 | x | 2.3% | -2.3% | 13.1%
CC(C)CC(NC(=O)CCC(=O)OCC(=O)[C@@]1(O)CCC2[C@@H]3CCC4=CC(=O)C=C[C@]4(C)C3[C@@H](O)C[C@@]21C)C(=O)O (stereo not given in full) | x | -17.3% | -2.5% | -25.8%
CCOc1ccc(C(=O)NCCN2CCCC2)cc1 | -16.3 | -0.3% | 0.6% | -0.7%
O=C(NCCCCCCNC(=O)c1cccs1)c1cccs1 | -20.7 | -5.6% | -0.1% | 2.9%
Cc1cc(C(=O)N/N=C/c2ccncc2)c2ccccc2n1 | x | 7.2% | u | 2.6%
CCn1c(SCC(=O)N/N=C/c2ccc(OC)c(OC)c2)nc2ccccc21 | -7.6 | 15.5% | -1.5% | -20.2%
Cc1cc(N2CCN(C)CC2)nc2ccc(NC(=O)CCC(=O)NCCc3ccc(Cl)cc3)cc12 | x | -4.3% | 1.3% | -1.3%
COCC(=O)N1CCC(Oc2ccc(C(=O)N[C@H](C(=O)OC)C(C)C)cc2)CC1 | x | 12.2% | -0.9% | -2.1%
COc1ccc2oc(=O)c(C(=O)OCc3ccccc3)cc2c1 | x | u | u | -11.0%
O=C(c1ccccc1)N1C(=O)C(c2ccccc2)Oc2ccccc21 (stereo not given) | -10.3 | 17.6% | -0.6% | 8.4%
Nc1nnc(SCCN2C(=O)c3ccccc3C2=O)s1 | -1.9 | -1.0% | 2.4% | -1.1%
CCOC(=O)Cn1nc(C)cc1NC(=O)c1cc(OC)c(OC)c(OC)c1 | x | 6.9% | -0.2% | 5.2%
O=C(CC(c1ccco1)S(=O)(=O)c1ccccc1)c1ccccc1 (stereo not given) | -1.7 | -26.1% | -2.6% | -0.9%
C=CCn1c(=O)c2ccccc2n2c(SCC(=O)O)nnc12 | x | 21.8% | -1.6% | 1.6%
COc1ccc(Cl)cc1C(=O)Nc1ccc(S(N)(=O)=O)cc1 | 3.2 | -11.7% | 1.4% | 0.3%
COc1cc(C(C)=O)ccc1OCC(O)Cn1nc(C)c(C(C)=O)c1C (stereo not given) | x | -7.8% | 0.1% | 3.7%
Cc1ccc(OCCn2cc(/C=C(\C#N)C(=O)NCC3CCCO3)c3ccccc32)cc1 (stereo not given) | -9.5 | u | u | -10.1%
CCOC(=O)c1cnc2ccc(C)cc2c1NCCN1CCOCC1 | x | 0.8% | 2.1% | -2.1%
COc1ccccc1C(=O)Nc1ccc(S(=O)(=O)Nc2nccs2)cc1 | x | -5.4% | -0.2% | -15.3%
COc1ccc(S(=O)(=O)Nc2ccc(CC#N)cc2)cc1 | -1.3 | 0.1% | 0.1% | 1.1%
CS(=O)(=O)N1CCC(C(=O)Nc2ccc(C(N)=O)cc2)CC1 | x | -3.1% | 1.7% | -7.9%
CCCC(=O)NCc1cc(-c2nn(C)c(=O)c3ccccc23)ccc1C | -8.8 | -7.1% | -1.5% | 1.4%
CC1CN(S(=O)(=O)c2ccc(C(=O)N(CCCN(C)C)c3nc4cc5c(cc4s3)OCCO5)cc2)CC(C)O1 (stereo not given) | x | -3.4% | 1.2% | x
COc1ccc(C(=O)N/C(=C\c2ccc(SC)cc2)C(=O)NCCCn2ccnc2)cc1OC | x | -3.7% | u | x
COc1ccc(CN2CC(=O)N(c3ccccc3OC)C2=S)cc1OC | x | -7.1% | 3.3% | -4.4%

These rows are one share of the data, so the mix of outcomes need not match the whole.
